PINK1 expr mod = PINK1 expression modulation. PINK1 immunofluorescence, high-content cytometry, 24 h. Potency, µM (doses to about 76.6 µM), inactives show top-dose activation (PINK1 increase), usual class: activators. 410,000 compounds, 0.2% hits; active = well fitted activation curve with a large enough effect; inconclusive = small, poorly fitted or top-dose-only effect; inactive = flat fitted curve, though single readings scatter; cell line not stated here;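 further: potency means the concentration at half of the fitted maximal effect; % of control where 0% means no effect; nearly all actives have a fitted effect of over 65% in size; a mitochondrial uncoupler was the plate control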
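Cells are seeded, rested 12 hours, then given compound at five concentrations or DMSO for 24 hours. After fixation, blocking and antibody staining, PINK1 amount and mitochondrial localization are scored; CCCP serves as control.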
gsp antag = antagonizes gsp, the McCune-Albright syndrome mutation; gsp-mutant cells, cAMP HTRF, 30 min; control for the full effect not named in the record; Potency, µM (series often up to 76.9 µM), for inactives: top-dose activity change, negative = inhibition, actives largely listed as inhibitors; 340,000 compounds, 0.4% hits; AID 624288; active = falling curve of any shape with a large fitted effect; inconclusive = falling curve, mostly with a smaller effect; inactive = flat or rising curve; cell line not stated here;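 further: intracellular cAMP measured with PDE inhibitor Ro 20-1724 present during compound exposure; potency means the concentration at half of the fitted maximal effect; on the % scale 0 is the no-effect control and ±100 the full control effect; nearly all actives have a fitted effect of over 65% in size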
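G418-selected cells were plated in DMEM/10% FBS for 16-24 h at 37C, then treated with compounds plus the PDE inhibitor […] (300 uM solution added) for 30 min at 37C. Intracellular cAMP was measured by HTRF after 30 min lysis at room temperature.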
Sfp PPTase inh = inhibitors of Bacillus subtilis Sfp phosphopantetheinyl transferase; Q9F4F7; Biochemical Sfp PPTase activity, qHTS; Potency, µM, for inactives: max response, negative = inhibition, usual class: inhibitors; 310,000 compounds, 3.5% hits; AID 1490; active means well fitted inhibition curve with a large enough effect; inconclusive means small, poorly fitted or top-dose-only effect, or another doubt; inactive means no such curve, though single readings can be large or run the other way;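 further: the enzyme is Sfp with the accession as filed and its product quenches rhodamine fluorescence; potency means the concentration at half of the fitted maximal effect; 0% = enzyme reaction without inhibitor and -100% = no enzyme wells; top concentration of the series not given in the record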
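Step 1, compound plus 15 nM Sfp-PPTase, 15 min, room temperature. Step 2, add rhodamine-CoA (5 uM) and BHQ-2-YbbR (12.5 uM). Step 3, read 525/598 nm fluorescence at 0 and 30 min.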
D2 agonist = agonists of human D2 dopamine receptor (beta-arrestin) | P14416 | DiscoveRx PathHunter D2 beta-arrestin, luminescence, 90 min; 100% = 57 uM dopamine signal | activation, % (no concentration beside the values) | 360,000 compounds, 0.084% hits; in the data active = activation above about 40%; inconclusive = about 15% to 40%; inactive = below about 15%; further: compound concentration not given in the record; the text of the record calls up to 30% inactive
Target sequence (P14416 whole entry, looked up): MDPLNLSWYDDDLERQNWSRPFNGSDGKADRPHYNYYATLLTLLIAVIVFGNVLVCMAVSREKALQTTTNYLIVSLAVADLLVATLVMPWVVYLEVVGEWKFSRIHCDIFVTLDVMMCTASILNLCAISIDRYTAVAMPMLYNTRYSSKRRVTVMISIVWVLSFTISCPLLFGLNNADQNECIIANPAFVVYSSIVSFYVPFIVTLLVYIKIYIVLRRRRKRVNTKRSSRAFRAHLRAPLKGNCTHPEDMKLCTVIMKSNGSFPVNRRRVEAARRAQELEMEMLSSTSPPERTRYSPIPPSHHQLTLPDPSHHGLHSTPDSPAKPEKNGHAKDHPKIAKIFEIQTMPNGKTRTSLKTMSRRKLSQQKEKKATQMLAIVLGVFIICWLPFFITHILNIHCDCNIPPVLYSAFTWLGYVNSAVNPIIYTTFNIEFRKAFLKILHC
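Agonist mode: compounds alone added to overnight-plated D2 PathHunter cells for 90 min at 37 C, with 57 uM final dopamine (EC100) defining full response. Beta-arrestin recruitment detected by chemiluminescent reagent, read after 1 h at ambient temperature.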
Menin MLL FP FL = menin-MLL binding inhibition, fluorescein peptide | Fluorescence polarization, fluorescein-MLL peptide displacement from menin | FP activity change, % at 61.4 µM | 290,000 tested, under 10 active | AID 1766; inconclusive = falling polarisation curve, or a change in total fluorescence; inactive = total fluorescence flat and polarisation flat or rising; no compound was filed as active; the % refers to the polarisation; negative = inhibition;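 further: % of control where 0% means no effect; inhibitors lower the polarisation; unlabelled MLL peptide was the positive control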
gsp ag = activates gsp, the McCune-Albright syndrome mutation; Potency, µM (highest dose often 76.9 µM), inactives show at the top dose activation (cAMP increase), actives largely listed as activators; 340,000 compounds, 0.13% hits; gsp mutant cells, cAMP HTRF, 30 min; control for the full effect not named in the record; AID 624287; active = well fitted activation curve with a large enough effect; inconclusive = small, poorly fitted or top-dose-only effect, or another doubt; inactive = no such curve, though single readings can be large or run the other way; cell line not stated here;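 further: phosphodiesterase inhibitor Ro 20-1724 added with compounds to block cAMP breakdown; potency means the concentration at half of the fitted maximal effect; nearly all actives have a fitted effect of over 60% in size; about a fifth of the inactives were tested at one dose only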
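Cells stably selected in G418 were plated at 2000/well, grown 16-24 hr, then given compounds in DMSO with the PDE inhibitor […] (300 uM solution added) for 30 min at 37C; cAMP was read by HTRF.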
ClpP mod = qHTS Assay for Activators of ClpP | purified B. subtilis ClpP, FRET peptide cleavage, 20 min | ATP-dependent Clp protease proteolytic subunit (Bacillus subtilis (strain 168)), P80244 | Potency, µM (doses to about 57.5 µM), for the others: at the top dose activity change, negative = active | 340,000 compounds, 1.9% hits; active = well fitted falling curve with a large enough effect; inconclusive = small, poorly fitted or top-dose-only effect; inactive = no such curve, though single readings can be large or run the other way; further: potency means the concentration at half of the fitted maximal effect; the source files actives as falling curves though it sought activators and does not explain the sign; nearly all actives have a fitted effect of over 65% in size; many hits overshoot -100%
Target sequence (P80244 whole entry, looked up): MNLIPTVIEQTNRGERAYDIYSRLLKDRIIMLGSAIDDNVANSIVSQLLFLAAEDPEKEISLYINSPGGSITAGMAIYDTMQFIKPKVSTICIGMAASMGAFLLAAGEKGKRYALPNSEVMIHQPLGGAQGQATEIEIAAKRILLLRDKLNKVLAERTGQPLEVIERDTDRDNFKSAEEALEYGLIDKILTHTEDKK
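Buffer: 100 mM Tris/HCl pH8, 100 mM KCl, 0.05% low protease BSA, 2.5% glycerol, 0.01% Tween-20. ClpP 10 microg/mL final; 20 min RT; delta FRET normalized to ADEP and DMSO controls.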
* = called active by the depositor; u = inconclusive; x = no result given; & = joins results of further samples; [ ] = another dose, or the depositor's remark.

The first three compounds, ahead of the listing:
Order of results: ClpP mod, Sfp PPTase inh, PINK1 expr mod, Menin MLL FP FL, gsp antag, gsp ag, D2 agonist
O=C(NCCSc1ccccc1)c1cncc(Br)c1
  -8.0%, 3%, -1.7%, 4.2, -5%, -1%, -2.9
COc1ccc(/C=N/Nc2cc(N(C)C)nc(N(C)C)n2)cc1
  2.2%, -16%, 4.9%, -15, -20%, u, -1.3
CCc1ccc(/C=C2/SC(=S)N(CCC(=O)Nc3cccc(C(=O)O)c3)C2=O)cc1
  1.7%, -9%, 3.9%, 28, -12%, -10%, -5.7

The whole of this part, from the start:
Order of results: ClpP mod, Sfp PPTase inh, PINK1 expr mod, Menin MLL FP FL, gsp antag, gsp ag, D2 agonist
O=C(NCCSc1ccccc1)c1cncc(Br)c1
  -8.0%, 3%, -1.7%, 4.2, -5%, -1%, -2.9
COc1ccc(/C=N/Nc2cc(N(C)C)nc(N(C)C)n2)cc1
  2.2%, -16%, 4.9%, -15, -20%, u, -1.3
CCc1ccc(/C=C2/SC(=S)N(CCC(=O)Nc3cccc(C(=O)O)c3)C2=O)cc1
  1.7%, -9%, 3.9%, 28, -12%, -10%, -5.7
Cc1ccc(C(=O)Cn2c(=N)n(CCN3CCOCC3)c3ccccc32)cc1
  -5.2%, x, 0.5%, x, -14%, x, -3.4
O=S(=O)(c1ccccc1)N1CCC2(CCCN(c3ccccn3)C2)CC1
  x, -25%, -0.4%, -2.9, x, x, x
COc1ccccc1C(=O)NCCC(=O)Nc1ccc(S(=O)(=O)N2CCC(C)CC2)cc1
  -3.8%, x, -1.1%, x, -14%, -43%[inhibitor], 1.2
O=C(C1CCCN(Cc2ccccc2[N+](=O)[O-])C1)N1CCCCC1 (centres undefined)
  -3.5%, -29%, -0.5%, -0.6, 10%, -12%, -0.5
CC(NCc1ccc(S(N)(=O)=O)cc1)C(=O)Nc1ccc([N+](=O)[O-])cc1Cl (centres undefined)
  x, -5%, 0.4%, 0.1, -2%, -8%[15.4 µM], 10
CC(C)N1CCOC1c1ccccc1 (centres undefined)
  7.9µM*, x, -1.5%, x, 8%, -5%[15.4 µM], -2.5
O=C(Nc1ccccc1)c1ccc2c(c1)CCN2S(=O)(=O)c1ccccc1
  -12%, 10%, 0.5%, x, -17%, 12%, -8.8
CCN(CC)S(=O)(=O)c1ccc(N2CCOCC2)c(NC(=O)C2COc3ccccc3O2)c1 (centres undefined)
  0.6%, 18%, 0.4%, 4.3, -6%, 12%[15.4 µM], -3.1
N#CC(CO)(Cc1ccc(OC(F)F)cc1)c1nc2ccccc2[nH]1 (centres undefined)
  3.4%, 8%, 1.0%, 6.5, u, -41%, 0.7
Cc1ccc(SCc2cc(=O)[nH]c(N3CCCCC3)n2)cc1
  0.6%, 10%, 1.0%, -1.0, 0%, 2%, -1.8
CCOC(=O)c1c(C)c(C(=O)OCC)n(C)c1C
  x, 11%, 2.5%, 2.5, 7%, 3%[15.4 µM], -4.9
COc1ccc(NS(=O)(=O)c2cc3c(cc2C)N(C(C)=O)CCO3)c(OC)c1
  0.9%, 2%, -0.7%, -1.3, 0%, 7%, -8.1
CSc1ccc(/C=N/Nc2cccc(C(=O)O)c2)cc1
  x, 12%, -0.7%, 9.2, 9%, -7%[15.4 µM], -2.8
CCC(Sc1nc2ccsc2c(=O)n1Cc1ccc(C(=O)O)cc1)C(=O)Nc1cccc(OC)c1 (centres undefined)
  -0.4%, x, 0.3%, x, x, -29%, 2.3
CN(C)/C=C/c1onc(-c2c(F)cccc2Cl)c1C#N
  x, 7%, -0.6%, 15, -3%, -89%[inhibitor], 1.0
CSc1nc2nccc(/C=C\c3ccccc3)n2n1
  -6.3%, -2%, 2.5%[38.3 µM], 2.8, 3%, 29%, -3.8
COC(=O)[C@]1(C)N[C@H](CN(C)C(=O)Nc2ccc(Cl)cc2)[C@@H]2C(=O)N(C)C(=O)[C@@H]21
  1.4%, x, -0.2%, x, 7%, x, 0.3
COc1cccc(-c2nc(CS(=O)(=O)CC(=O)Nc3ccccc3C)c(C)o2)c1
  x, 13%, 5.9%, 0.2, -12%, 3%, 0.1
C=CCc1cc(C=O)cc(OC)c1OCc1ccc(C(=O)O)cc1
  x, 13%, -1.9%, -0.3, -22%, 12%[15.4 µM], -4.9
N=c1c[n+](-c2ccc(Cl)cc2)[n-]o1
  -1.7%, 3%, -0.5%, -2.1, 7%, -47%[inhibitor], -2.2
CC(=O)c1ccc(NC(=O)Nc2ncn(Cc3cccc(C)c3)n2)cc1
  2.3%, 3%, 5.0%[38.3 µM], -0.6, 3%, u, -3.1
CC(C)CC(=O)OC(C)(C)[C@@H]1Cc2c(ccc3ccc(=O)oc23)O1
  3.5%, x, 0.9%, x, -16%, x, 0.5
Cc1nnsc1C(=O)N1CCCC(Nc2ccc(F)c(F)c2)C1 (centres undefined)
  -1.0%, -4%, -0.2%, x, -8%, u, 0.9
CC[C@]12c3[nH]c4ccccc4c3CCN1C(=O)C(CC(=O)NCc1ccc(OC)c(OC)c1)C[C@@H]2C(=O)N1CCN(C(=O)C2CC2)CC1 (some centres undefined)
  0.3%, x, -0.3%, x, 0%, x, -0.4
CCn1c(SCC(=O)N/N=C/C=C/c2ccco2)nnc1-c1ccc(OC)cc1
  0.2%, u, 2.9%, u, 0%, -5%, -0.9
CCc1cccc(NC(=O)Cc2ccc([N+](=O)[O-])cc2)c1
  -0.9%, 3%, 4.1%, 3.8, 6%, -53%[inhibitor], -2.2
O=C(NC(Cc1c[nH]c2ccccc12)C(=O)O)c1ccccc1 (centres undefined)
  1.1%, -7%, x, -0.8, -6%, 1%, -0.6
COc1ccccc1NC(=O)CCN1C(=O)c2ccccc2S1(=O)=O
  x, 19%, -1.1%, 0.0, -2%, u, -0.3
CCOc1ccc(N(Cc2cc3cc(C)ccc3[nH]c2=O)C(=O)COC)cc1
  u, 2%, -1.0%, 1.3, -6%, -34%[inhibitor], -6.6
Cc1ccc(N2C(=O)S/C(=C/c3cn(C)c4ccccc34)C2=O)cc1
  -0.2%, u, 29%, 7.0, -2%, 15%, -0.9
CNC(=O)/C(=C/c1ccc2c(c1)OCO2)NC(=O)c1ccc(Br)cc1
  -2.3%, 4%, 0.8%, 2.0, 15%, 1%, -1.4
CCOC(=O)c1cc(NC(=O)OC)c(C)nc1C
  -1.0%, 9%, -2.6%, 3.0, 8%, 2%, -1.4
Cc1ccccc1S(=O)(=O)NC(=O)C1(C)CCN1C(=O)C1CCCCC1 (centres undefined)
  0.3%, x, -0.3%, x, x, x, -4.3
C[C@@H]1CN([C@@H](C)CO)C(=O)CCCn2nncc2CO[C@@H]1CN(C)C(=O)Nc1ccccc1C(F)(F)F
  -1.9%, x, 2.6%, x, x, -3%, -5.0
O=C(Nc1ncccn1)C1CCCN1S(=O)(=O)c1ccc(Cl)c(Cl)c1 (centres undefined)
  -13%, 14%, x, -0.8, -1%, -4%, -1.5
C/C(=N\NC(=O)c1cccc(Cl)c1)C1C(=O)c2ccccc2C1=O
  -1.7%, -5%, 40µM*, 7.9, u, 4%, -7.0
Cc1cccc(C)c1NC(=O)CN(C)C(=O)c1ccc(N2C(=O)CCC2=O)cc1
  0.8%, x, 2.7%, x, 6%, -10%, -2.4
CN(C)c1ccc(/C=N/OC(=O)Nc2ccccc2)cc1
  x, 1%, 0.7%, -14, -11%, 0%, 8.9
C/C(=N/NC(=O)c1ccccc1)C(=O)O
  x, u, -1.1%, 8.6, -6%, 2%[15.4 µM], 6.1
COc1ccccc1C(=O)N/C(=C/c1ccco1)C(=O)Nc1cccc(C(=O)O)c1
  x, 50µM*, 1.0%, 12, 9%, 0%[15.4 µM], -2.4
O=C(Nc1ccc2nc(-c3ccco3)[nH]c2c1)c1cccs1
  -2.0%, -12%, 0.4%, 1.6, 3%, -33%[inhibitor], -0.6
Cc1ccc(N(C(=O)CS(=O)CC(=O)Nc2ccc(F)cc2)C(C)C(=O)NC(C)(C)C)cc1 (centres undefined)
  x, 1%, 0.5%, -14, 8%, -10%[15.4 µM], -2.1
COc1cc2sc(C)nc2c2sccc12
  -0.5%, 0%, -0.8%, -0.5, -10%, 12%, 1.1
CC(C)(C)OC(=O)N[C@@H](Cc1ccccc1)C(=O)N1CCC(C(=O)O)CC1
  -1.5%, 10%, -2.1%, 1.8, 11%, 22%, -6.5
O=C(CN1CCN(Cc2ccccc2)CC1)NNC(=O)c1ccc(Cl)cc1
  x, x, -2.4%, x, 7%, -7%[15.4 µM], -1.1
Cc1cccc(CCN=C(N)NS(=O)(=O)c2ccccc2)c1
  -0.1%, 4%, 2.0%, x, 6%, 5%, 0.5
O=C(NNC(=O)c1ccccc1F)c1ccc(-n2cncn2)c([N+](=O)[O-])c1
  1.0%, x, -1.4%, x, 3%, -9%, -4.4
O=C(O)/C=C/c1ccc(Cn2ccnc2)cc1
  1.7%&3.0%, x, -0.2%&0.3%, x, -7%&1%, x, -4.5&-4.9
c1ccc(Oc2nc(NCc3ccco3)nc(NCc3ccco3)n2)cc1
  -0.2%, u, 13%, 20, 7%, 1%, -1.3
COc1ccc(N2C(=O)NC3CC2(C)Oc2ccc(Br)cc23)cc1OC (centres undefined)
  177%, 2%, 8.3%, 1.0, -6%, -4%, -2.7
CS(=O)(=O)n1nc(-c2ccc(Cl)cc2)nc1N
  x, 4%, -1.6%, 0.2, 5%, 11%[15.4 µM], -5.1
O=C(c1cccc(Cl)c1)N1CCCc2ccccc21
  -0.7%, -6%, 0.5%, 2.9, 4%, 3%[15.4 µM], -2.1
